ALR inh: blocks human ALR sulfhydryl oxidase activity | P55789 | purified ALR, DTT oxidation, H2O2 HRP-luminol luminescence | inhibition, % (no concentration beside the values) | 290,000 tested, 3.8% active;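 active = mean and each replicate at 75% or more; inconclusive = only one of the two met; inactive = neither met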;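 note: stock transfer was 7.5 nL into about 7.5 µL; 0% = neutral wells and 100% = wells with inactivated enzyme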
Target sequence (P55789 whole entry, looked up): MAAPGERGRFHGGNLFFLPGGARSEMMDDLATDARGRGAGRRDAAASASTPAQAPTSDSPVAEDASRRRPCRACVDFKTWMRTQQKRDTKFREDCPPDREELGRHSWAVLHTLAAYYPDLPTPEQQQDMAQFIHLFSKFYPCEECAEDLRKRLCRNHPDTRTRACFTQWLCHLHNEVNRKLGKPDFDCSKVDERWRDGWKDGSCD
RanGTP-Imp inh: disruptors of Ran-importin-beta complex formation – biochemical, FRET, CFP-Ran, YFP-importin-beta, homogeneous, primary screen | cell-free CFP-Ran/YFP-importin-beta FRET ratio | 300,000 tested, 1.1% active | inhibition, % (concentration not given with the values);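 active = most replicates above 15%; inconclusive = exactly half above 15%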;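 note: 0% = DMSO wells and 100% = Ran loaded with GDP instead of GTP; wells of about 40 µL received 100 nL stock; the first replicate is given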
AF4-AF9 inh: MLL-AF4/AF9 protein interaction inhibition | inhibition, % at 10 µM | 350,000 tested, 0.47% active | AlphaScreen, biotin-AF4 peptide binding to FLAG-AF9;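 active = every replicate reaching a set inhibition limit, whatever the replicate mean, cut at about 25% in these data; inconclusive = mean inhibition reaches that limit but some replicates miss it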;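 note: 0% = plate neutral control median and 100% = total signal loss; the record names both 10 and 1 µM as test concentration; the first replicate is given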
Target sequence (P42568 whole entry, looked up): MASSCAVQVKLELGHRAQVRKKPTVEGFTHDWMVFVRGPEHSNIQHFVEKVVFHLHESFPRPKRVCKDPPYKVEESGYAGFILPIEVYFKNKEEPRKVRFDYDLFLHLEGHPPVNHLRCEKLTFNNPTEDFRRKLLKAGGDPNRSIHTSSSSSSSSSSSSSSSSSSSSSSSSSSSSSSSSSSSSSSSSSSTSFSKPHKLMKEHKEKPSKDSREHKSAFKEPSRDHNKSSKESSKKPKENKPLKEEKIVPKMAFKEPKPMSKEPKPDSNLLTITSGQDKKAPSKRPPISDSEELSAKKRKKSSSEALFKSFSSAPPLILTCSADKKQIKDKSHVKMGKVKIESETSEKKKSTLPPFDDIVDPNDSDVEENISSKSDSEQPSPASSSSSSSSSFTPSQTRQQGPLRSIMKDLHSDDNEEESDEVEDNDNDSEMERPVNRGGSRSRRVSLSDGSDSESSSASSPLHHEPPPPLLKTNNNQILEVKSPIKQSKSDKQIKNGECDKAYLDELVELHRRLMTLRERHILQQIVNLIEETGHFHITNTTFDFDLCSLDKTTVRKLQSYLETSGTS
Calb FLC: affects C. albicans growth with fluconazole; C. albicans CaCi-2 (fluconazole-resistant clinical isolate) + fluconazole, Alamar Blue growth, 48 h; growth inhibition, % (test concentration not listed); 300,000 tested, 0.57% active; AID 1979;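 active = most replicates above 75%; inconclusive = exactly half above 75%; inactive = most below 75%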;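 note: all wells also contain fluconazole at 8 µg/ml as a sub-toxic cotreatment; 0% = median of DMSO wells and 100% = median of geldanamycin control wells; wells of about 8 µL received 7.5 nL stock; the first replicate is given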
T cruzi inh: T. cruzi replication inhibition | T. cruzi beta-gal in NIH3T3, luminescence, 90 h | inhibition, % (test concentration not listed) | 300,000 tested, 1.4% active;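 active = mean inhibition across valid replicates above about 55%, limit read from the data; inconclusive = mean below that limit but half or more replicates reach it; inactive = mean below it, under half of replicates reach it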;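 note: signal also drops with host cell toxicity which is not excluded here; 0% = plate median of DMSO wells and 100% = zero luminescence signal; higher percent means less beta-gal luminescence so fewer parasites; stock transfer was 50 nL into about 50 µL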
Beta cell apopt: blocks beta cell apoptosis; INS-1E cytokine-induced death, ATP luminescence, 48 h; percent of positive-control rescue, neutral wells zero; protection from apoptosis, % (concentration not given with the values); 300,000 tested, 0.8% active; AID 435005;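 active = all replicates at 75% or more, or half of them and the mean; inconclusive = half reach 75% but not the mean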;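 note: 0% = cytokine-treated negative control wells and 100% = positive control rescue; higher means more ATP so stronger rescue from cytokine killing; wells of about 40 µL received 100 nL stock; the first replicate is given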
FGF22 binding: FGF22 (human) thermal shift binding | 340,000 tested, 1.5% active | Q9HCT0 | calls only at 9.99 µM | recombinant FGF22 thermal shift, SYPRO orange fluorescence; percent of sucrose octasulfate shift, DMSO zero | AID 651658;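 active = melting point raised past a set limit in the mean and every replicate; inconclusive = no clear call; three in four hits are not shown here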
Target sequence (Q9HCT0 whole entry, looked up): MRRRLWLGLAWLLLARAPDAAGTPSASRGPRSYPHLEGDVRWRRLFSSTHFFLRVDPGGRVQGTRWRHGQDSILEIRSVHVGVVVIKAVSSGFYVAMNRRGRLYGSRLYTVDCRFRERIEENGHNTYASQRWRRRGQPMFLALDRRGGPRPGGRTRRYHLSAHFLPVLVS
rRNA inh HTS: selective bacterial rRNA inhibition in E. coli; E. coli WT GFP vs humanized-ribosome RFP mutants, fluorescence, 24 h; stronger effect = lower value; DMSO median 0, no signal -100; GFP signal change (wild-type ribosome), % (concentration not given with the values); 350,000 tested, 1.6% active; AID 720706;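 active = significant combined selectivity score with lowered wild-type GFP, culture density cut under 30%, mutant RFP and density less affected; inactive = any of these conditions unmet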; note: one replicate is shown; some compounds called inactive have numbers as strong as hits
rRNA inh HTS OD600: further read-out of rRNA inh HTS, marked with its call; OD600 change, %; measured here: OD600 growth;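 optical density of the mix in the first replicate; 0 = DMSO median and -100 = no signal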
rRNA inh HTS RFP: also measured in rRNA inh HTS; calls as there; RFP signal change, %; measured here: RFP humanized mutant strains;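 first replicate; 0 = DMSO median and -100 = no signal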
* = called active by the depositor; i = inactive; ? = inconclusive; nt = no result given; & = joins results of further samples.

SMILES | ALR inh | RanGTP-Imp inh | AF4-AF9 inh | Calb FLC | T cruzi inh | Beta cell apopt | FGF22 binding | rRNA inh HTS | rRNA inh HTS OD600 | rRNA inh HTS RFP
COC(=O)Cc1c(C)nc2nc(-c3cccnc3)[nH]n2c1=O | nt | 2.0 | nt | 6 | -16 | 4 | nt | nt | nt | nt
CC(=O)c1cccc(OCC(O)CN2CCN(C(=O)c3ccco3)CC2)c1 (centres undefined) | nt | -6.5 | -1.2 | -2 | -12 | -1 | i | 6 | -1 | -1.1
O=C(CNC(=O)c1ccccc1)OCCOc1cccc(Cl)c1 | nt | 0.2 | -2.6 | 4 | -16 | -7 | i | -1 | -1 | -0.7
O=C(Cn1cccc1)Nc1ccc(F)cc1F | 2 | -2.9 | nt | -2 | -15 | 1 | nt | nt | nt | nt
O=C(CSc1nnc(-c2cccnc2)o1)Nc1ccc(Cl)cc1 | -23 | ? | -3.6 | 9 | -11 | 10 | i | 7 | 5 | 5.6
O=C(NCCNC(=O)c1ccccn1)c1ccccc1 | 95* | 1.5 | -1.2 | 20 | -14 | 1 | i | -8 | -6 | -3.8
Cc1c(C(=O)NCC2CCCO2)oc2ccc3c(c12)C(=O)CC(C)(C)O3 (centres undefined) | 0 | -0.9 | nt | -2 | -2 | 3 | nt | nt | nt | nt
CCOc1ccc(S(=O)(=O)N2CCCCC2)cc1NC(=O)C1CSC2(C)CCC(=O)N12 (centres undefined) | -4 | 1.3 | 5.6 | 4 | 2 | nt | i | -6 | -6 | 4.4
COc1cc([N+](=O)[O-])ccc1NC(=O)CN1CCc2cc(OC)c(OC)cc2C1 | -18 | -2.2 | 8.4 | -3 | 0 | 0 | i | 7 | 8 | -2.2
O=C(Nc1ccc(Cl)c(Cl)c1)c1ccccc1NC(=O)C1CC=CCC1C(=O)O (centres undefined) | 5 | nt | -1.0 | 16 | nt | -5 | i | -35 | -50 | -4.1
Cc1cccn2c(=O)c(/C=C(\C#N)C(N)=O)c(Oc3ccccc3)nc12 | nt | 25* | -1.5 | 12 | -13 | -4 | i | 10 | 5 | -0.2
C#CCN(C(=O)c1ccc(OC2CCN(C(=O)CCOC)CC2)cc1)C1CCCCC1 | 0 | 4.3 | -1.2 | -3 | 1 | -10 | i | -18 | -23 | -4.6
Cn1c(CN2CCC(C(N)=O)CC2)c(C#N)c2ccccc21 | -4 | -3.5 | nt | 10 | -3 | 1 | nt | nt | nt | nt
COc1ccccc1CNC(=O)c1cc(-c2ccncc2)nc2c(Cl)cccc12 | -4 | 2.2 | -2.1 | -1 | 18 | 5 | i | 10 | 1 | 5.5
CN(C)c1ccc(C(=S)N2CCNCC2)cc1 | 99* | -0.4 | nt | 7 | -9 | -6 | nt | nt | nt | nt
N=C(SC1CC(=O)N(c2ccc(F)cc2)C1=O)N1N=C(c2ccccc2)CC1c1ccccc1 (centres undefined) | -14 | 1.2 | -10 | -2 | 6 | -3 | i | 11 | 3 | 1.0
COc1ccc(NC(=O)NS(=O)(=O)c2ccc(C)cc2)c(OC)c1 | -43 | -0.9 | nt | 18 | 47 | 59 | nt | nt | nt | nt
Oc1c(C=C2N=c3ccccc3=N2)sc(=S)n1C1CCCCC1 | -1&-6 | 1.8&-3.7 | -4.2 | -5&-14 | -16&7 | 0&-11 | i | 11 | 23 | 7.5
Cc1ccc(N2CCN(S(=O)(=O)N3CCCCC3)CC2)cc1Cl | -2 | 1.8 | -0.4 | 5 | -9 | -8 | i | 12 | 12 | -5.0
COc1ccc(CNCC(=O)Nc2sccc2C#N)cc1 | 15 | ? | -0.2 | 20 | -2 | -1 | i | 6 | 9 | 4.5

3 compounds out of the list above, arranged by the number in RanGTP-Imp inh, descending:
SMILES,ALR inh,RanGTP-Imp inh,AF4-AF9 inh,FGF22 binding,rRNA inh HTS,rRNA inh HTS OD600,rRNA inh HTS RFP
COC(=O)Cc1c(C)nc2nc(-c3cccnc3)[nH]n2c1=O,nt,2.0,nt,nt,nt,nt,nt
Cc1ccc(N2CCN(S(=O)(=O)N3CCCCC3)CC2)cc1Cl,-2,1.8,-0.4,i,12,12,-5.0
Cn1c(CN2CCC(C(N)=O)CC2)c(C#N)c2ccccc21,-4,-3.5,nt,nt,nt,nt,nt

Continued.
SMILES | ALR inh | RanGTP-Imp inh | AF4-AF9 inh | Calb FLC | T cruzi inh | Beta cell apopt | FGF22 binding | rRNA inh HTS | rRNA inh HTS OD600 | rRNA inh HTS RFP
CC(=O)Nc1ccc(S(=O)(=O)NCCNS(=O)(=O)c2ccc(NC(C)=O)cc2)cc1 | -4 | ? | -0.7 | 1 | -8 | -4 | i | 30 | 15 | 5.5
Cc1nc(-c2ccc(NS(=O)(=O)c3ccccc3)cc2)cs1 | 0 | -1.8 | ? | -9 | 1 | -2 | i | -57 | -77 | -17
CC1CCC(=O)N(CCOc2ccccc2)CC1 (centres undefined) | -7 | 2.0 | -1.9 | -2 | 3 | 2 | i | 12 | 7 | -6.6
CS(=O)(=O)N1CCN(C(=O)C(Sc2ccccc2)c2ccccc2)CC1 (centres undefined) | 17 | nt | nt | 7 | -4 | -15 | nt | nt | nt | nt
COc1cccc(CNCCO)c1OCc1ccccc1Cl | nt | 1.1 | 5.1 | -38 | -5 | -1 | i | nt | nt | nt
CCN(Cc1ccccc1)CC(O)COC(c1ccc(OC)cc1)c1ccc(OC)cc1 (centres undefined) | -2 | 2.9 | 10 | 0 | 43 | 2 | i | -1 | -2 | 3.3
N#Cc1cccc(N=c2ssnc2Cl)c1 | nt | 1.7 | -3.7 | -2 | -2 | nt | nt | 4 | 2 | 1.4
CC(c1ccco1)N(C(=O)COc1ccc(Cl)cc1Cl)c1ccccn1 (centres undefined) | 1 | -1.5 | -11 | 6 | 7 | 3 | i | -8 | -9 | 7.5
Cc1cc2c3c(c1)C1(C(=O)N3C(C)(C)CC2C)C(C#N)=C(N)Oc2n[nH]c(C)c21 (centres undefined) | -9 | ? | nt | 1 | 10 | -7 | nt | nt | nt | nt
Nc1c(N(CCCO)C(=O)C2CCCC2)c(=O)[nH]c(=O)n1Cc1ccccc1 | 2 | nt | 0.0 | nt | nt | -3 | i | 11 | 16 | 5.1
COc1ccc(OC(=O)c2c(C)nn(-c3ccccc3)c2C)cc1 | -17 | 2.0 | -2.2 | 1 | 7 | -1 | i | -32 | -49 | -7.2
CCNC(=S)N=Nc1c(O)n(Cc2ccc(Cl)cc2)c2ccccc12 | nt | 1.6 | 8.9 | 19 | -3 | 18 | i | nt | nt | nt
Cc1cc(C)n(C(=O)CNC(=O)/C=C/c2ccccc2)n1 | -4 | -1.6 | -0.8 | 0 | -14 | -2 | i | 8 | 16 | 0.8
O=C(NC12CC3CC(CC(C3)C1)C2)OCCNC1CCCCC1 | -2 | -0.9 | 2.7 | -9 | 25 | -13 | nt | 5 | 5 | 0.8
COc1ccc(CNCCC(c2ccc(F)cc2)c2ccc(OC(C)C)cc2)cc1OC (centres undefined) | -4 | 5.4 | 11 | 23 | 43 | 7 | i | -45 | -74 | -6.2
Cc1cccc(CCNS(=O)(=O)c2ccc(S(=O)(=O)N3CCC(C)CC3)cc2)c1 | -2 | -2.8 | nt | -19 | 4 | -9 | nt | nt | nt | nt
CC(C)Cn1cnc2c1c(=O)n(CC(=O)Nc1ccc3c(c1)OCO3)c(=O)n2Cc1ccccc1 | nt | 1.7 | nt | -3 | 9 | 5 | nt | nt | nt | nt
CCn1c(=O)cc(N2CCN(Cc3ccccc3)CC2)[nH]c1=O | 28 | ? | -5.6 | 1 | -5 | -5 | i | 6 | 7 | -1.0
CCc1cc(C(=O)N2CCN(c3ccccc3OC)CC2)sc1C | 20 | 0.7 | -26 | -1 | 12 | -7 | i | -17 | -28 | 3.8
Cc1ccccc1OCCC(=O)OCC(=O)NC1CCCC1 | 3 | -0.5 | -2.0 | -1 | ? | -1 | i | 11 | 4 | 1.7
Cc1nn2c(-c3ccccc3)c(-c3ccccc3)nc2[nH]c1=O | 6 | -4.6 | nt | 11 | -6 | -4 | nt | nt | nt | nt
CN(C)CCSc1nnc2[nH]c3ccccc3c2n1 | -14 | -1.1 | nt | 40 | -2 | nt | nt | nt | nt | nt
CC(=O)c1ccc(N2CCN(C(=O)C3CCN(S(=O)(=O)c4ccc(F)cc4)CC3)CC2)cc1 | 1 | nt | 1.1 | nt | nt | 7 | i | -16 | -23 | -7.3
COc1cccc(NC(=O)Cn2cc3c(n2)CCCCC3)c1 | -4 | 2.3 | -7.6 | -26 | 2 | -13 | i | -1 | 0 | -1.6
COC(=O)c1ccccc1NC(=O)c1nc(S(=O)(=O)Cc2ccccc2)ncc1Cl | 7 | 2.0 | -3.0 | -4 | 44 | 99* | i | 5 | 6 | -1.4
COc1ccccc1N1CCN(c2ncnc3sc(C(=O)NCC4CCCO4)c(C)c23)CC1 (centres undefined) | 18 | -1.9 | 1.8 | 9 | 10 | 13 | i | -23 | -25 | 11
COCCCNC(=O)Cn1cnc2c(OCc3ccccc3)ncnc21 | 4 | nt | -1.4 | nt | nt | -14 | i | 5 | 8 | 1.5
Cc1nn(C(C)C(=O)NC2CCCCC2)c(=O)c2nn(-c3ccccc3)c(C)c12 (centres undefined) | 2 | -1.2 | -5.8 | 3 | 25 | -3 | i | 5 | 7 | -1.2
CCc1nn2c(NCCCO)cc(C)nc2c1-c1ccc(F)cc1 | 35 | 3.0 | 2.6 | -8 | -5 | nt | i | -32 | -38 | -6.2
COCON1C(=O)CN(C(C)=O)C1c1ccc(Cl)cc1Cl (centres undefined) | 1 | -0.2 | nt | 16 | -9 | -6 | nt | nt | nt | nt
CC(C)(C)c1cc(-c2n[nH]c(=S)n2-c2ccccc2F)n[nH]1 | 91* | 2.1 | 2.5 | 9 | -1 | -4 | i | -8 | -3 | 3.7
Cc1ccc(N/C(CSC(N)=O)=N/S(=O)(=O)c2ccccc2)cc1 | -10 | 3.3 | nt | -6 | 1 | -1 | nt | nt | nt | nt
CC(C)(C)c1csc(NC(=O)CSc2nc3ccccc3c(=O)[nH]2)n1 | 94* | -1.2 | nt | -3 | -6 | 2 | nt | nt | nt | nt
CCn1c(CCC(N)=O)nnc1SCC(=O)Nc1cccc(S(=O)(=O)N2CCCC2)c1 | 22 | nt | -1.2 | nt | nt | -1 | i | 19 | 11 | 0.7
COc1ccc(S(=O)(=O)NC2CC3CCC2C3)cc1Br (centres undefined) | -14 | ? | 0.6 | -20 | 8 | -6 | i | -25 | -57 | 2.3
O=C(O)c1ccc(N=Cc2c(O)ccc3ccccc23)cc1 | -78 | 1.3 | 6.1 | 21 | -26 | -11 | i | 14 | 6 | 2.1
CC(NC(=O)c1ccc(S(=O)(=O)Nc2ccccc2)cc1)c1ccc(S(N)(=O)=O)cc1 (centres undefined) | -2 | nt | 1.2 | nt | nt | 3 | i | -5 | -1 | 11
O=C(COC(=O)c1ccc(O)cc1)Nc1ccc2c(c1)OCCO2 | -6 | nt | -3.4 | nt | nt | -12 | i | -16 | -7 | -2.3
CCn1cc(/C=C(/C#N)S(=O)(=O)c2ccccc2)cn1 | -6 | 2.3 | nt | 0 | -2 | 1 | nt | nt | nt | nt
CC1(c2ccccc2Cl)NC(=O)N(CC(=O)Nc2ccc(N3CCOCC3)cc2)C1=O (centres undefined) | 31 | nt | -2.0 | nt | nt | 3 | i | 3 | 5 | -4.1

Assay outcomes deposited in PubChem BioAssay by Broad Institute.

The list is partial; count on the stated rates, not on these rows.
